# CtBP-E1A blk: CtBP/E1A binding inhibition. AlphaScreen GST-E1A/His-CtBP binding, 1536-well; stronger effect = lower value; control for the full effect not named in the record. activity change, % (concentration not given with the values). hit rate 0.49% among 340,000. AID 651724; in the data active means activity change below about -65%; inconclusive means about -30% to -65%; inactive means above about -30%; also: % is scaled to controls: 0 for no effect and ±100 for the full control effect
#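 AlphaScreen with 125 nM GST-E1A and 125 nM His-CtBP (5X stocks) in Tris pH 8.0, 300 mM NaCl, BSA, Tween 20, TCEP. Compounds preincubated 2 h at 37 deg C, then glutathione donor/nickel acceptor beads added for 1 h at 37 deg C in dark.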
# TRPML1 blocker: human mucolipin-1 channel inhibition | Q9GZU1 | TRPML1-inducible cells, Ca2+ dye fluorescence, FDSS; stronger effect = lower value; inhibition of EC80 agonist-evoked calcium signal | activity change, negative = inhibition, % (no concentration beside the values) | hit rate 0.02% among 390,000; in the data active means activity change below about -50%; inconclusive means about -30% to -50%; inactive means above about -30%;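 also: stimulus is agonist 54-4 at its EC80 concentration; % is scaled to controls: 0 for no effect and ±100 for the full control effect; compound concentration not given in the record; the text of the record puts the active cut at -80%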
#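 Calcium fluorescence in TRPML1-DL cells induced overnight with Tet: a 110 s read after compound pin addition, then a 110 s antagonist read after challenge with 54-4 at 4 uM final (EC80).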
# PINK1 modulator: PINK1 expression modulation. PINK1 immunofluorescence, high-content cytometry, 24 h. Potency, µM (series often up to 76.6 µM), without a hit: at the top dose activation (PINK1 increase), most hits filed as activators. hit rate 0.2% among 410,000. AID 624263; active = well fitted activation curve with a large enough effect; inconclusive = small, poorly fitted or top-dose-only effect; inactive = flat fitted curve, though single readings scatter; cell line not stated here;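 also: potency is read from the fitted curve at half-maximal effect; % of control where 0% means no effect; nearly all actives have a fitted effect of over 65% in size; a mitochondrial uncoupler was the plate control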
#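 Compound titrations (5 concentrations, 24 h) on a stable cell line; DMSO and CCCP controls. Endpoint: fixed-cell PINK1 immunofluorescence with mitochondrial, cell and nuclear markers, scanned by microplate cytometer.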
# TRPML1 ag: human mucolipin-1 channel agonism. activation, % (no concentration beside the values). TRPML1-expressing cells, Ca2+ dye fluorescence, FDSS; host cell line not named in the record; reference of the full effect not given here. Q9GZU1. hit rate 0.12% among 410,000. AID 624414; in the data active = activation above about 50%; inconclusive = about 30% to 50%; inactive = below about 30%; also: 0% is about no effect; the text of the record puts the active cut at 80%
#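 Agonist activity was taken from a 110 s kinetic Ca2+ dye read on the FDSS after pinning compounds onto TRPML1-DL cells. The cells were seeded at 1,500/well with Tet inducer, incubated about 16 h, then dye-loaded at room temperature.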
# Six1-Eya2 inh: blocks human Six1 binding to Eya2; AlphaScreen GST-Six1/His-Eya2 binding, biochemical; stronger effect = lower value; control for the full effect not named in the record; activity change, % (concentration not given with the values); AID 651725; hit rate 0.56% among 360,000; in the data active = activity change below about -65%; inconclusive = about -30% to -65%; inactive = above about -30%; also: % is scaled to controls: 0 for no effect and ±100 for the full control effect
# Target sequence (O00167 whole entry, looked up): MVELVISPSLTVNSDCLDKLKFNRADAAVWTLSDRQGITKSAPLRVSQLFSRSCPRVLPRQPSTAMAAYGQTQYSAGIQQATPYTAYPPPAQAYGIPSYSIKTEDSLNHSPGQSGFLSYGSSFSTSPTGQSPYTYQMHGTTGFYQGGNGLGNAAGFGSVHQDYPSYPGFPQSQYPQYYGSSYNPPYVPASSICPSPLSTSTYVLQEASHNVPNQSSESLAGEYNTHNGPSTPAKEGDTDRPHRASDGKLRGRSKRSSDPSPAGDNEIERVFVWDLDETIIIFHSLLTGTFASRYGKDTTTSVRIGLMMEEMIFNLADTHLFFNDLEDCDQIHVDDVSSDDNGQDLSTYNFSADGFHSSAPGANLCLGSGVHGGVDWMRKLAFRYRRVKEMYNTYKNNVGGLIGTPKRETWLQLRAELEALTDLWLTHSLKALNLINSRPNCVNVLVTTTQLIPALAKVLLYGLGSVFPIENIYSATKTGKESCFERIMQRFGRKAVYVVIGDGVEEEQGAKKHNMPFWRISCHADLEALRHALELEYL
# Target sequence (Q15475 whole entry, looked up): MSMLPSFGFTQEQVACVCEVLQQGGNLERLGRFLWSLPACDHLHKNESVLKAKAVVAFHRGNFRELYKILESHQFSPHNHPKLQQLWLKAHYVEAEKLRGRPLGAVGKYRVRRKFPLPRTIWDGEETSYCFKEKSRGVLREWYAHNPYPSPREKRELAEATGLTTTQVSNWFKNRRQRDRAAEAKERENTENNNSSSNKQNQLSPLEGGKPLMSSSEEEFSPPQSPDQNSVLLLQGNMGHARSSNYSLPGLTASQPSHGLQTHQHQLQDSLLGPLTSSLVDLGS
#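 AlphaScreen luminescence read after one hour at 37 °C in darkness. Pin-transferred compounds met GST-Six1 and His-Eya2 protein (5X stock 250 nM/500 nM) plus glutathione donor and Ni-chelate acceptor beads (5X, 50 ug/mL).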
# D2 ag: agonists of human D2 dopamine receptor (beta-arrestin) | DiscoveRx PathHunter D2 beta-arrestin, luminescence, 90 min; 100% = 57 uM dopamine signal | activation, % (concentration not given with the values) | hit rate 0.084% among 360,000 | AID 624465; in the data active = activation above about 40%; inconclusive = about 15% to 40%; inactive = below about 15%; also: compound concentration not given in the record; the text of the record calls up to 30% inactive
#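 DiscoveRx PathHunter D2 beta-arrestin cells (2,100/well) attached overnight, then compound-stimulated 90 min at 37 C in HBSS/10 mM HEPES/0.1% Tween-20 buffer; beta-galactosidase complementation read by luminescence after 1 h at ambient temperature. Dopamine 57 uM final (EC100) as control.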
# Numbers without * were called inactive; ? = inconclusive; . = no result given; [ ] = another dose, or the depositor's remark. An unsorted share of the library. Share with any hit: about 1%.
SMILES,CtBP-E1A blk,TRPML1 blocker,PINK1 modulator,TRPML1 ag,Six1-Eya2 inh,D2 ag
Cc1ccc(F)c(CNC(=O)C2CCC(=O)N(CCN3CCOCC3)C2)c1F (stereo unspecified),-9,-4,1.6%,0.4,3,-1.8
Cc1ccc(-c2nc(CS(=O)(=O)CC(=O)NCc3ccc4c(c3)OCO4)c(C)o2)cc1,.,-5,-1.6%,1.2,3,3.9
CCCNC(=O)c1ccc(Cn2c(=S)[nH]c3c([nH]c4ccc(OC)cc43)c2=O)cc1,-9,11,-2.6%,0.9,-2,2.0
C#CCOCCOCCOCCNc1nc(N2CCN(C(=O)CCCCCCCCCCNC(=O)[C@@H](CCSC)n3cc(CCO)nn3)CC2)nc(N2CCN(C(=O)CCCCCCCCCCNC(=O)[C@H](CO)n3cc(CCCCCN)nn3)CC2)n1,-2,1,8.0%,-0.1,-13,1.1
COc1ccc(NC(=O)c2cc3c(-c4ccccc4F)nn(C)c3s2)c(OC)c1,.,-8,6.4%,0.7,.,.
O=C(Nc1nccs1)NC(C(F)(F)F)C(F)(F)F,-2,1,0.0%,1.0,2,0.3
CCOC(=O)C(=NC(C)CC)NNc1cccc(C(F)(F)F)c1 (stereo unspecified),-17,7,?,1.5,-26,?
CCN(CC)C(=O)c1cnn(-c2ccccc2)c1NC(=O)c1ccccc1F,6,-3,-3.9%[38.3 µM],0.3,0,-0.2
CCN1CCn2c3c(c4cccc(C)c42)CCCC31 (stereo unspecified),-15,-7,2.6%,0.7,-2,9.2
OC(CNCC1CCCO1)COc1ccc(OCC(O)CNCC2CCCO2)cc1 (stereo unspecified),-4,-15,-0.6%,-0.2,0,-1.9
COc1ccccc1-n1c(SCC(N)=O)nc2sc3c(c2c1=O)CCC3,-1,-19,-1.1%,0.2,4,-1.8
O=C(NCC(=O)N1CCN(c2ncccn2)CC1)c1ccc(F)cc1,1,2,-0.9%,-0.6,0,1.7
Cc1ccccc1NC(=S)NCc1ccc2c(c1)OCO2,-5,-7,0.1%,-0.1,0,-3.6
CCCNC(=O)C1=CC(c2ccc3c(c2)OCO3)=NS(=O)(=O)N1C,.,-13,-0.9%,0.5,.,.
Cc1cccc(C)c1NC(=O)c1ccc(CN2CCc3ccccc3C2)cc1,0,17,-1.0%,-1.7,-4,-2.4
CC1=C(C(=O)N2CCOCC2)CC(CC(=O)NCCCN(C)C)C(=O)N1Cc1ccc(F)cc1 (stereo unspecified),10,.,1.5%,-0.1,14,-4.0
CCOC(=O)N1CCN(C(=O)c2cc(OC)c(OC)c(OC)c2)CC1,7,-8,0.5%,0.1,4,-0.4
CSc1ncccc1C(=O)OCC(=O)c1ccc[nH]1,.,6,2.5%,-1.8,-3,-0.8
CNCCCOc1cccc(OC(C)C)c1,9,-2,-1.7%,1.0,4,-0.6
COc1ccc(OC)c(-c2csc(NC(=O)Cc3ccccc3F)n2)c1,-12,-27,-0.7%,2.3,-7,1.1
CNC(=O)COc1coc(CN2CCN(c3ccc(F)cc3)CC2)cc1=O,2,-7,-0.2%,-0.2,0,3.7
CC(C)c1ccc(Cc2nnc(NCCCO)[nH]c2=O)cc1,.,4,5.8%,0.4,4,1.8
CCOC(=O)CNC(=O)c1c(C)nn(C)c1Cl,4,-13,1.9%,-0.4,3,-2.4
Cc1noc(Cn2c(=O)c3cc4c(cc3n(CC(=O)Nc3ccc(C(C)C)cc3)c2=O)OCO4)n1,.,18,2.1%,-0.1,.,.
CCn1ccnc1CN(C)C(=O)c1cc(COc2ccccc2SC)on1,-6,35,1.8%,0.8,-20,-2.9
SMILES,CtBP-E1A blk,TRPML1 blocker,PINK1 modulator,TRPML1 ag,Six1-Eya2 inh,D2 ag
COc1ccc2nc(NC(=O)[C@@H]3CCCN3C(=O)c3cccs3)sc2c1,-4,?,2.1%,0.4,1,-4.7
COc1ccc(CNC(=O)CC23CC4CC(CC(C4)C2)C3)cc1,0,5,-1.5%,2.9,5,1.7
COc1cccc(CNC(=O)[C@@H]2CCCN2C(=O)[C@H]2CCCCN2C(=O)OC(C)(C)C)c1,0,.,-1.3%,-1.1,-1,.
Cc1ccc2c(c1)N(CC(=O)N1CCCC1)C(=O)CO2,0,4,-0.2%,0.6,6,-3.0
Cc1cc2oc(=O)sc2cc1NS(=O)(=O)c1cccc2cccnc12,7,13,-1.1%,0.2,2,-0.9
CC(=O)Nc1ccc(C(=O)OCC(=O)NCc2ccccc2)cc1,4,6,4.0%,-0.1,1,-3.4
C/C(=N/Nc1ccc(Cl)cc1)c1cnnc(-c2ccccc2)n1,.,2,1.8%,0.7,10,-2.1
CN(CC(O)COc1ccc(S(=O)(=O)N2CCOCC2)cc1Cl)C1CCCCC1 (stereo unspecified),3,19,-0.6%,-0.3,11,-0.4
CCC(=O)c1ccc(OCC(=O)OC(C)C(=O)Nc2c(C)n(C)n(-c3ccccc3)c2=O)cc1 (stereo unspecified),-9,-13,0.4%,0.4,-11,-1.8
COc1ccc2c(c1)Cc1cc(NC(=O)c3ccccc3-c3ccccc3C(=O)O)ccc1-2,-24,21,-0.8%,0.5,?,-2.4
Cc1ccc(C(=O)NNC(=O)CCn2nnc3ccccc32)cc1,4,2,0.4%,0.8,16,-3.5
O=C(O)/C(=C\c1cn(-c2ccccc2)nc1-c1ccc(Cl)cc1)NC(=O)c1ccccc1,7,-3,-0.8%,13,33,2.0
COC(=O)c1ccc(NS(=O)(=O)c2cc(-c3cc(C)no3)ccc2OC)cc1,.,8,5.4%,-0.5,-9,1.8
O=C(CSc1oc(-c2ccco2)nc1S(=O)(=O)c1ccc(Cl)cc1)c1ccccc1,.,-3,-1.8%,1.7,.,.
COc1ccc(N2CC(C(=O)Nc3ccc(S(=O)(=O)N4CCCCC4)cc3)CC2=O)cc1 (stereo unspecified),-13,13,0.4%,-0.1,0,-1.6
Cc1ccc(OCc2nnc(SCC(=O)c3cccs3)n2-c2ccccc2)cc1C,-4,9,0.1%,2.4,-1,-6.5
COc1ccccc1NC(=O)c1oc2ccccc2c1NC(=O)c1cc(OC)c(OC)c(OC)c1,-4,-5,11%[38.3 µM],0.2,-1,1.7
O=C(Nc1ccccc1F)c1nc(SCc2ccccc2F)ncc1Cl,.,-7,9.5%,1.7,.,.
Cc1ccc(C2CC(=O)Nc3cc4c(cc32)OCCO4)cc1Br (stereo unspecified),.,1,2.2%,0.7,.,.
COC(=O)c1cccc(COC(=O)c2cc3ccccc3oc2=O)c1,10,24,1.2%,1.8,1,-1.2
CC(C)Sc1nc2c(c(=O)[nH]c(=O)n2C)n1C,7,-3,0.3%,-1.0,0,-3.4
C=CCC(=O)OCC(=O)Nc1ccc(Cl)cn1,0,26,1.1%,3.6,0,-3.2
COc1ccccc1CNc1nc2c(S(=O)(=O)c3ccccc3)nnn2c2ccc(Cl)cc12,.,0,-0.7%,0.8,.,.
CC(=O)Nc1cc(C(F)(F)F)ccc1N1CCOCC1,7,6,3.1%[38.3 µM],-0.5,0,-1.4
O=C(CCCn1c(=O)c2sccc2n(Cc2cc(=O)n3ccccc3n2)c1=O)NCc1ccco1,-1,16,-0.2%,0.5,0,-3.6
SMILES,CtBP-E1A blk,TRPML1 blocker,PINK1 modulator,TRPML1 ag,Six1-Eya2 inh,D2 ag
CN(C)CCCn1c(N)c(C#N)c2nc3ccccc3nc21,-15,-4,-1.8%,1.6,-20,-0.7
CC(C)c1ccc(NC(=O)C(NS(=O)(=O)c2ccc3c(c2)CCC(=O)N3)c2ccccc2)cc1 (stereo unspecified),.,-3,-0.3%,-0.2,.,.
CC(C)Cn1c(N)c(C(=O)COC(=O)c2ccc([N+](=O)[O-])o2)c(=O)n(C)c1=O,-3,-3,4.9%,0.3,-1,?
COc1ccccc1-c1nnc(SCC(=O)Nc2ccc(N3CCOCC3)cc2)n1C,12,6,-5.0%,0.8,0,-4.3
CC(C)N1CCN(Cc2cn[nH]c2C2CCCCC2)CC1CCO (stereo unspecified),0,-3,0.5%,-0.3,11,0.3
Cc1ccc(S(=O)(=O)NCc2ccccn2)c(C)c1C,-3,10,0.5%,0.0,5,-2.3
COCCNc1ccc([N+](=O)[O-])cc1C(=O)NC1CCCc2ccccc21 (stereo unspecified),-11,7,0.1%,2.1,-11,-0.5
CCN(CC)S(=O)(=O)c1ccc(NC(=O)CN(c2ccccc2)S(=O)(=O)N(C)C)cc1,.,4,-1.1%,1.4,.,.
COc1ccc2c(c1)C(=O)N(c1ccc(C)cc1C)C(=O)C2(C)C,2,13,2.3%,1.1,8,4.7
CN(C)Cc1cc(C(C)(C)C)cc(C(C)(C)C)c1O,-4,.,0.1%,.,4,-5.3
O=C1CCC(C(=O)NCc2cccnc2)N1 (stereo unspecified),5,-3,2.7%,-0.2,6,-2.8
COc1cccc(-n2nnc3c(=O)n(CC(=O)N4CCCCC4)cnc32)c1,4,-3,10%[38.3 µM],0.4,-1,-1.0
Cc1ccc(Cn2c(=O)n(Cc3nc(-c4ccccc4)no3)c(=O)c3cc4c(cc32)OCO4)cc1,.,23,-0.4%,3.6,.,.
CC(C)C(=O)Nc1ccc(-c2nc3ccccc3c(=O)o2)cc1,?,-8,0.6%,-0.4,-76*,2.6
Cc1cc(C)c(NC(=O)CNC(=O)Cc2ccc(S(=O)(=O)N3CCOCC3)s2)c(C)c1,.,6,0.2%,-1.2,-7,-1.7
Cc1ccc(CNC(=O)c2ccc3nc(SCc4ccc(F)cc4)[nH]c3c2)cc1,.,11,-1.9%,1.2,.,.
Cc1ccc(Cl)cc1NC(=O)C1CCN(S(C)(=O)=O)CC1,0,2,1.2%,-0.1,7,-3.5
CCCNC(=O)C1CC(c2ccccc2C(F)(F)F)=NO1 (stereo unspecified),.,-6,1.1%,-0.2,17,-0.9
C=CCNCCOc1cccc(Br)c1,-5,-10,2.6%,0.0,22,-2.1
CC(=O)c1ccc(Nc2nc(C(N)Cc3ccc(C(F)(F)F)cc3)cs2)cc1 (stereo unspecified),-3,.,1.9%,1.1,-2,?
Cc1ccccc1Nc1c(-c2cc(Br)ccc2F)nc2ccccn12,.,26,0.5%,2.4,.,.
CC(C)n1c(-c2cccnc2)nc2cnccc21,1,34,-1.6%,0.1,8,-0.7
CCCCc1nc2cc(C(=O)N3CCCC(COC)C3)ccc2o1 (stereo unspecified),11,4,-0.3%,-0.2,-1,-2.0
O=C(NNC(=O)c1cccc(-n2cccc2)c1)c1ccc(F)cc1,-10,16,-0.2%,0.6,-19,-0.2
Cc1ccc(S(=O)(=O)NCc2ccc(C(=O)NCCc3cccc(C)c3)cc2)cc1,.,?,0.8%,4.4,.,.
C/C(=N\Nc1ccc(C(=O)O)cc1)c1ccc2c(c1)Nc1ccccc1S2,-8,3,3.0%,1.6,-17,?

# A different layout for two compounds above.
molecule | CtBP-E1A blk | TRPML1 blocker | PINK1 modulator | TRPML1 ag | Six1-Eya2 inh | D2 ag
O=C1CCC(C(=O)NCc2cccnc2)N1 (stereo unspecified) | 5 | -3 | 2.7% | -0.2 | 6 | -2.8
COc1cccc(-n2nnc3c(=O)n(CC(=O)N4CCCCC4)cnc32)c1 | 4 | -3 | 10%[38.3 µM] | 0.4 | -1 | -1.0

# Source: PubChem BioAssay (National Center for Advancing Translational Sciences (NCATS))
